Mtb H37Rv = Confirmatory growth inhibition assay against Mycobacterium tuberculosis H37Rv, potency (AID 1949) | inhibition, % at 10 µg/mL, or IC50 in µg/mL where a hit was titrated | 100,000 tested, 1.6% active | most inactive calls were filed without a number and no value below 0 was filed;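 active = confirmed in a dose series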;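 note: bacteria grown 7 days with compound before Alamar blue readout; 0% = untreated bacteria and 100% = reference antibiotic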
An asterisk follows results filed as active; i = inactive. This is a subset (hit frequency here may not be typical).

Preview:
SMILES	Mtb H37Rv
O=C(CN(c1ccc([N+](=O)[O-])cc1)S(=O)(=O)c1ccccc1)Nc1ccc(F)c(Cl)c1	3%
Cc1ccc(NC(=S)NC(=O)c2sc3ccccc3c2Cl)cc1Cl	i
O=C(CSc1nc2ccccc2o1)Nc1c(Cl)cccc1Cl	i
CCCCC(=O)Nc1cccc(NC(=S)NC(=O)c2cc3ccccc3cc2OC)c1	i
CC(=O)c1cccc(NC(=O)C2(c3ccccc3)CC2(Cl)Cl)c1 (stereo not drawn)	i
O=C1c2ccc(Oc3ccc4c(c3)C(=O)N(CC3CCCO3)C4=O)cc2C(=O)N1CC1CCCO1 (stereo not drawn)	i
COc1ccc(NC(=S)Nc2cc(OC)c(OC)c(OC)c2)c(OC)c1	i

The list itself, repeating the preview:
SMILES	Mtb H37Rv
O=C(CN(c1ccc([N+](=O)[O-])cc1)S(=O)(=O)c1ccccc1)Nc1ccc(F)c(Cl)c1	3%
Cc1ccc(NC(=S)NC(=O)c2sc3ccccc3c2Cl)cc1Cl	i
O=C(CSc1nc2ccccc2o1)Nc1c(Cl)cccc1Cl	i
CCCCC(=O)Nc1cccc(NC(=S)NC(=O)c2cc3ccccc3cc2OC)c1	i
CC(=O)c1cccc(NC(=O)C2(c3ccccc3)CC2(Cl)Cl)c1 (stereo not drawn)	i
O=C1c2ccc(Oc3ccc4c(c3)C(=O)N(CC3CCCO3)C4=O)cc2C(=O)N1CC1CCCO1 (stereo not drawn)	i
COc1ccc(NC(=S)Nc2cc(OC)c(OC)c(OC)c2)c(OC)c1	i
COC(=O)Cc1ccc(NC(=S)N2CCN(C)CC2)cc1	i
COc1ccccc1NC(=O)CSCc1nc2ccccc2[nH]1	i
Cc1ccc(C(C)C)cc1OCCOCCN1CCOCC1	i
Cc1cc(NC(=O)c2cccs2)ccc1NC(=O)c1cccs1	i
O=C(CCc1ccccc1)NC(=S)Nc1ccccc1Br	i
CCCCC(=O)Nc1ccc(C(N)=O)cc1	4%
COc1ccc(C)cc1NC(=O)COc1cc(C)c(Br)c(C)c1	i
O=C(c1ccccc1F)N(Cc1ccccc1Cl)C1CCS(=O)(=O)C1 (stereo not drawn)	i
COc1ccc(N2C(=O)CC(N(Cc3ccco3)C(=S)NCCc3ccccc3)C2=O)cc1 (stereo not drawn)	40%
Cc1cc(C)nc(NC2=NCCN2C(=S)Nc2c(C)cccc2C)n1	i
CCOC(=O)c1ccc(NS(=O)(=O)c2ccc(Cl)s2)cc1	i
CCOCCCNCc1cc(Cl)ccc1OCc1ccc(F)cc1	5%
CCOC(=O)c1cccc(NC(=O)c2ccccc2Br)c1	i
CC(NC(=O)C(Cc1ccccc1)N1C(=O)c2ccccc2C1=O)c1ccc2c(c1)CCCC2 (stereo not drawn)	6%
COc1ccc2c3c(c(=O)oc2c1C)CCCCC3	i
Cc1c(C(=O)OC(C)C)sc2ncn(CCCc3ccccc3)c(=O)c12	i
C=CCn1c(COc2ccc(C(C)C)cc2)nnc1SCC(=O)Nc1c(F)cc(F)cc1Br	9%
COc1ccc(CCNC(=O)c2ccc(Cl)cc2)cc1OC	i

(more compounds)
SMILES	Mtb H37Rv
CCC(=O)Oc1c(C)cc(C=O)cc1C	i
Cc1nc(SCCCCSc2n[nH]c(C)n2)n[nH]1	i
Cc1ccc2nc(-c3cccnc3)cc(C(=O)Nc3nncs3)c2c1	1%
COC(=O)c1ccc(C2C(C#N)=C(N)Oc3n[nH]c(C(C)(C)C)c32)cc1 (stereo not drawn)	i
COc1cc(Br)cc2cc(C(=O)Nc3cc(C(F)(F)F)ccc3Cl)c(=O)oc12	i
CCCc1nnc(NC(=O)Cn2c(=O)oc3ccccc32)s1	i
Cc1ccc(S(=O)(=O)NCc2ccc3[nH]c4c(c3c2)CCCC4)cc1	i
CCOC(=O)N1CCN(C(=O)COc2ccc(Cl)cc2C)CC1	i
CSC1=C(C#N)C(c2ccncc2)C(C(=O)Nc2ccccc2)=C(C)N1 (stereo not drawn)	i
COC(=O)c1c(-c2ccc(OC)c(OC)c2)csc1NC(=O)c1ccoc1C	4%
CN(C)C(=O)NCCc1ccc(F)cc1	i
COc1ccccc1C1CC(=O)C2=C(C1)NC(C)=C(C(=O)OC1CCCC1)C2c1cccs1 (stereo not drawn)	7%
CNc1nc(N2CCC(C)CC2)nc(C)c1[N+](=O)[O-]	10%
Cc1ccc(NC(=O)CC2NCCNC2=O)cc1Cl (stereo not drawn)	i
COc1ccc(Cl)cc1C(=O)NCCN1CCN(C(=O)c2cc(Cl)ccc2OC)CC1	4%
Cc1cccc(C)c1OCC(=O)Nc1ccc(Cl)c(-c2nc3ccccc3c(=O)o2)c1	39%
COc1ccc(C(=O)CSc2nc(C(C)(C)C)cc(C(F)(F)F)c2C#N)cc1OC	9%
Cc1cc(Br)ccc1OCc1nc(-c2cccnc2)no1	i
CCOC(=O)c1c(NC(=O)c2nc3ncccn3n2)sc(C)c1C	i
CC(=O)Nc1ccc(C(=O)Nc2ccc(Br)c(C)c2)cc1	i
c1ccc(C2Cc3c(sc4c3c3nncn3c3nncn43)C(c3ccccc3)S2)cc1 (stereo not drawn)	1%
CCOc1ccccc1N(CC(=O)Nc1cccc(C)c1)S(C)(=O)=O	i
O=C(OCc1ccc(Cl)c(Cl)c1)c1ccco1	i
O=[N+]([O-])c1ccc(Nc2ccc(Cl)cc2)nc1	i
CCOc1cc2c(cc1/C=C(\C#N)c1nc3ccccc3[nH]1)OCO2	i

Given comma-delimited: entries from further up.
molecule,Mtb H37Rv
Cc1nc(SCCCCSc2n[nH]c(C)n2)n[nH]1,i
Cc1ccc2nc(-c3cccnc3)cc(C(=O)Nc3nncs3)c2c1,1%
COC(=O)c1ccc(C2C(C#N)=C(N)Oc3n[nH]c(C(C)(C)C)c32)cc1 (stereo not drawn),i
COc1cc(Br)cc2cc(C(=O)Nc3cc(C(F)(F)F)ccc3Cl)c(=O)oc12,i
CCCc1nnc(NC(=O)Cn2c(=O)oc3ccccc32)s1,i
Cc1ccc(S(=O)(=O)NCc2ccc3[nH]c4c(c3c2)CCCC4)cc1,i
CCOC(=O)N1CCN(C(=O)COc2ccc(Cl)cc2C)CC1,i

Grouped by structure, those above with an NH in an aromatic ring
SMILES	Mtb H37Rv
COc1ccccc1NC(=O)CSCc1nc2ccccc2[nH]1	i
Cc1nc(SCCCCSc2n[nH]c(C)n2)n[nH]1	i
COC(=O)c1ccc(C2C(C#N)=C(N)Oc3n[nH]c(C(C)(C)C)c32)cc1 (stereo not drawn)	i
Cc1ccc(S(=O)(=O)NCc2ccc3[nH]c4c(c3c2)CCCC4)cc1	i
CCOc1cc2c(cc1/C=C(\C#N)c1nc3ccccc3[nH]1)OCO2	i

Next part.
SMILES	Mtb H37Rv
CCOc1ccccc1C(=O)NNC(=O)c1cccnc1	i
O=C(CSc1ncn(-c2ccccc2)n1)N1CCc2ccccc21	i
C=CCNCCCOc1ccc(C(C)(C)C)cc1C	i
Cc1cc(Cl)ccc1OCCCC(=O)Nc1sc2c(c1C(N)=O)CCCCC2	i
C(=C\c1ccccc1)/CSc1nnc(-c2ccccc2)o1	7%
Cc1ccc(C(=O)NC(C(=O)NCCN(C)C)C23CC4CC(CC(C4)C2)C3)cc1 (stereo not drawn)	i
COc1ccc(OC)c(S(=O)(=O)NC2CCCC(C)C2C)c1 (stereo not drawn)	2%
Cc1ccccc1NS(=O)(=O)c1ccc(NC(=O)c2ccc(Cl)cc2Cl)cc1	i
CCC(C(=O)O/N=C(\N)c1ccncc1)c1ccccc1 (stereo not drawn)	i
CCOC(=O)C1=C(C)N=c2s/c(=C\c3cc(Cl)cc(Cl)c3O)c(=O)n2C1c1ccccc1Cl (stereo not drawn)	i
COc1ccc(C(=O)O)cc1NC(=S)NC(=O)c1cccc(C)c1	i
O=C1CC(NCC2CCCCC2)C(=O)N1c1ccc(Br)cc1 (stereo not drawn)	i
COc1ccc(OC)c(CN2CCN(C3CCN(Cc4ccccc4)CC3)CC2)c1	i
O=c1c2c3c(sc2nc2c4ccccc4c(N4CCOCC4)nn12)CCC3	i
Nc1nc(-c2cccc(NS(=O)(=O)c3ccccc3)c2)cs1	i
O=c1[nH]cnc2c1sc1nc(-c3ccccc3)ccc12	i
COC(=O)c1ccccc1NC(NC(=O)c1ccccc1C)C(Cl)(Cl)Cl (stereo not drawn)	i
CCNC(=S)Nc1ccc(I)cc1	i
COC(=O)C1=CN(Cc2ccc(F)cc2)C=C(C(=O)OC)C1c1ccc(OC)c(Br)c1	2%
O=C(NCCN1CCCC1)c1ccccc1Br	i
Cc1ccc(S(=O)(=O)N(CC(=O)Nc2c(C)cccc2C)Cc2ccc(F)cc2)cc1	i
COc1cc(Br)cc2cc(C(=O)N3CCN(Cc4ccccc4)CC3)c(=O)oc12	i
C=CCN1C(=O)C(CC(=O)Nc2ccc(OC)cc2)N(Cc2ccc(OC)cc2)C1=S (stereo not drawn)	i
Cc1cc(C)c(C(N)=O)c(Nc2ccc(Cl)c(Cl)c2)n1	i
O=C(Cc1ccc(Br)cc1)NCc1ccccc1Cl	i

Remaining list, next part:
SMILES	Mtb H37Rv
COc1ccc(-c2nc(C#N)c(N3CC(C)CC(C)C3)o2)cc1OC (stereo not drawn)	i
Cc1ccc(Cl)cc1NC(=O)C1CC=CCC1C(=O)O (stereo not drawn)	i
O=C(COc1cccc2cccnc12)Nc1nc(-c2ccccc2)cs1	25%
C=CCn1c(Cc2ccccc2)nnc1SCC(=O)NCCc1ccccc1	i
CSc1cccc(NC(=O)c2c(Cl)cnn2C)c1	2%
CN1CCN(c2ccc(S(=O)(=O)N3CCOCC3)cc2)CC1	i
O=C1Nc2cc(Cl)ccc2SC2CCCCC2O1 (stereo not drawn)	i
COc1cc(NC(=S)N2CCN(c3ccccn3)CC2)cc(OC)c1	i
CN1CCN(/C=N/c2c(C#N)cnn2-c2ccccc2)CC1	i
Cc1nn(Cc2ccccc2)c(C)c1NC(=O)CSc1nnc(-c2cc(Cl)ccc2O)n1C	i
Cc1cc(C)cc(-n2cc3c(=O)n(C)c(=O)n(C)c3c2)c1	i
CC1=C(C(=O)OCC2CCCO2)C(c2cc3c(cc2Br)OCO3)NC(=O)N1 (stereo not drawn)	i
c1ccc2c(c1)ncn2CCC1CCCCC1	i
Cn1c(SCC(=O)N(C2CCCCC2)C2CCCCC2)nnc1-c1ccccc1Br	i
N#CC1=C(N)Oc2n[nH]c(-c3cccs3)c2C1Cc1ccccc1 (stereo not drawn)	i
COc1cc(NC(=S)Nc2ccccn2)c(OC)cc1Cl	i
CCN1C(=O)C(O)(CC(=O)c2c(C)coc2C)c2ccccc21 (stereo not drawn)	i
Cc1ccccc1C=Cc1nc2ccc(I)cc2c(=O)n1-c1ccccc1	i
O=C1CC(c2ccccc2Cl)c2cc3c(cc2N1)OCCO3 (stereo not drawn)	1%
Cc1nc2ccc(NC(=O)N3CCSCC3)cc2s1	i
COc1cc(-c2n[nH]c(=S)n2-c2cccc(C(F)(F)F)c2)cc(OC)c1OC	2%
COc1ccc(C(=O)C(C)Oc2cccc(NC(=O)c3ccccc3Cl)c2)cc1 (stereo not drawn)	i
O=S(=O)(Nc1cccnc1)c1ccc(Br)c2ccccc12	i
CCOC(=O)CSC1=C(C#N)C(c2ccccc2[N+](=O)[O-])C(C(C)=O)=C(C)N1 (stereo not drawn)	1.4µg/mL*
O=C(Nc1ccc2nc(-c3ccc(Br)o3)[nH]c2c1)c1ccccc1	3%

(next part)
SMILES	Mtb H37Rv
CCOc1ccc(N(CC(=O)Nc2ccc(C)cc2)S(=O)(=O)c2ccc(OC)c(OC)c2)cc1	i
COc1ccc(Cl)cc1C(=O)N1CCN(c2ccccn2)CC1	i
Cc1ccc(CC(=O)Nc2nnc(CCc3ccccc3)s2)cc1	i
Cc1ccccc1N1CCN(C(=S)c2ccc([N+](=O)[O-])cc2)CC1	i
COc1ccc(NC(=O)CN(c2cc(C)ccc2C)S(C)(=O)=O)cc1	i
Cc1c(NC(=O)c2ccccc2N(Cc2ccccc2)S(C)(=O)=O)cccc1[N+](=O)[O-]	i
COC(=O)c1cn(C(=O)c2ccccc2)c2ccccc12	i
O=C(NCCCN1CCOCC1)C1CC(c2ccccc2O)=NO1 (stereo not drawn)	i
OCc1cn(-c2ccccc2)nc1-c1cccc(Br)c1	4%
COc1ccccc1NC(=O)c1c(NC(=O)c2cccc3ccccc23)sc2c1CCC2	i
CCOC(=O)c1ccc(NC(=O)C(=O)NCc2cccs2)cc1	i
O=C(NNC(=O)c1c(F)c(F)c(F)c(F)c1F)c1ccccc1	i
Cc1ccc(N2C(=O)CCC2=O)cc1Cl	i
COC(=O)Cc1c(C)c2ccc(OCC(=O)c3ccc(OC)cc3)c(C)c2oc1=O	2%
COC(=O)COc1ccc(NC(=O)c2ccc(-c3ccccc3)cc2)cc1	<0.1µg/mL*
NS(=O)(=O)c1ccc(CCNC(=O)c2cccc(I)c2)cc1	i
O=C(c1cc2cc(Br)ccc2oc1=O)N1CCCC1	i
CCC1(C(=O)c2ccc(C)cc2)C2c3cc(Br)ccc3OC(=O)C21C(C)=O (stereo not drawn)	0%
N#Cc1ccccc1COc1ccc(CO)cc1Br	i
CCOC(=O)CCc1c(C)c2ccc(OCc3ccc(OC)cc3)cc2oc1=O	0%
Cc1ccc(/C(O)=C2/C(=O)C(=O)N(CCCn3ccnc3)C2c2ccc(Br)cc2)cc1 (stereo not drawn)	i
C=CCc1cc(Cl)ccc1OCCNC(C)CC (stereo not drawn)	i
COc1ccc(CCCC(=O)Nc2ccc(Br)c(Cl)c2)cc1	i
O=C(NC(=S)Nc1ccccc1N1CCN(C(=O)c2ccc(Cl)cc2)CC1)c1ccco1	i
N#Cc1ccccc1NC(=S)NC(=O)COc1ccc2ccccc2c1	i

Later entries
SMILES	Mtb H37Rv
CN(C)c1ccc(NC(=O)C2CC=CCC2C(=O)O)cc1 (stereo not drawn)	i
O=C(CSc1nnnn1C1CCCCC1)c1ccc([N+](=O)[O-])cc1	i
CC(=O)c1ccc(NC(=S)NC(NC(=O)c2ccco2)C(Cl)(Cl)Cl)cc1 (stereo not drawn)	i
COc1ccc(NC2C=CS(=O)(=O)C2)c(OC)c1 (stereo not drawn)	i
C=CCNC(=O)COc1cccc(C)c1C	i
Cc1ccc(C)c(NC(=O)C2COc3ccccc3O2)c1 (stereo not drawn)	i
COc1cc(CNC2CCCC2)c(Br)cc1OCc1ccccc1	26%
COc1cccc2cc(C(=O)N3CCc4ccccc43)c(=O)oc12	i
CCOc1ccc(C(=O)Nc2nc3cc(Cl)c(C)cc3s2)cc1	i
C=CCN(CC=C)S(=O)(=O)c1ccc(NC(=S)NC(=O)c2ccc(Br)o2)cc1	i

Screening data from PubChem.
